# Vaccinia Venus – inhibitors of vaccinia virus (Venus reporter); Vaccinia virus Venus reporter expression, fluorescence; Potency, µM (doses to about 36.5 µM), for the others: top-dose activity change, negative = inhibition, usual class: inhibitors; hit rate 0.46% among 330,000; active means well fitted inhibition curve with a large enough effect; inconclusive means small, poorly fitted or top-dose-only effect; inactive means no such curve, though single readings can be large or run the other way; tested in A549 cells; also: nearly all actives have a fitted effect of over 30% in size; inactives centre near -10
# Vaccinia mCherry – vaccinia inhibition (mCherry reporter) | AID 720579 | Vaccinia virus mCherry reporter infection, fluorescence; about a quarter of the inactives have no number | hit rate 0.63% among 310,000 | Potency, µM (series often up to 36.5 µM), without a hit: at the highest dose activity change, negative = inhibition, usual class: inhibitors; active = well fitted inhibition curve with a large enough effect; inconclusive = small, poorly fitted or top-dose-only effect; inactive = no such curve, though single readings can be large or run the other way; tested in A549 cells; also: nearly all actives have a fitted effect of over 35% in size; inactives centre near -10
# Active calls of the source: *; i = inactive; ? = inconclusive; nt = no result given; & = joins results of further samples; [ ] = remark or other dose. % is scaled to controls: 0 for no effect and ±100 for the full control effect; potency is read from the fitted curve at half-maximal effect.
SMILES,Vaccinia Venus,Vaccinia mCherry
CC(C)c1nn2c(=O)cc(COc3cccc(NC(=O)c4ccco4)c3)nc2s1,-3.6%,-13.1%
Cc1ccc(N2C(=O)CC(n3ccnc3)C2=O)cc1C (stereo not given),-8.5%,-12.7%
C=C1C(=O)OC2C[C@@]3(C)CCCC(C)C3=CC12 (stereo not given in full),?,?
COc1ccc(CNC(=O)C(c2ccncc2)N(C(=O)Cc2cccs2)c2cccnc2)cc1 (stereo not given),-17.1%,i
O=C(CCC(=O)N1CCSc2ccccc21)NCc1ccccc1,5.6%,2.5%
COc1ccccc1-c1cccc([C@@H]2C[C@H]3[C@@H](CN2)CON3C)c1,8.6%,-15.2%
O=C(Nc1nc(-c2ccc(Cl)cc2)cs1)C1=COCCO1,-18.9%,-2.9%
CCn1c(=NC(=O)c2cccc(N3C(=O)CCC3=O)c2)sc2c(OC)ccc(OC)c21,-2.5%,-17.1%
CCCCn1nc2cc(C(=O)NCc3ccccc3OC)ccc2c1OCC,-4.6%,-6.9%
CCOC(=O)C1=C(C)N(CCCCCC(=O)O)C(=O)NC1c1ccc(Br)cc1 (stereo not given),1.4%,-4.4%
Cc1c(C(=O)Nc2nnc(C(F)(F)F)s2)oc2ccccc12,-18.8%,-14.4%
CC1(C)CC(=O)C(CC(=O)c2ccccc2)=C(NN=C(N)N)C1,-6.0%,-20.0%
Cc1ccc(CNC(=O)C2c3ccccc3C(=O)N(C)C2c2c[nH]c3ccccc23)o1 (stereo not given),-15.0%,nt
CC(C)COc1cccc(C(=O)Nc2ccc(S(=O)(=O)N3CCOCC3)cc2)c1,?,-20.1%
CCSc1nnc(NC(=O)CSc2nc3c(c(=O)n2C)SC(C)C3)s1 (stereo not given),-8.3%,-9.6%
COc1ccccc1CN1COc2ccc3c(C)cc(=O)oc3c2C1,6.1%,-3.6%
CCOc1ccc2nc(NC(=O)c3cccn(Cc4ccccc4)c3=O)sc2c1,-18.4%,-22.8%
COc1ccc2nc(/N=C(\N)NC(=O)N3c4ccccc4Sc4ccccc43)nc(C)c2c1,-7.8%,-0.5%
Cc1ccccc1Nc1nc(-c2cccnc2)nc2ccccc12,-23.5%,?
CCOC(=O)c1scc(-c2ccccc2)c1S(=O)(=O)N1CCN(c2ccc(Cl)cc2)CC1,4.1%,-12.2%
CC(=O)Nc1ccc(NS(=O)(=O)c2ccc(C)cc2)cc1[N+](=O)[O-],-2.0%,-24.0%
Cc1csc(NC(=O)C2CCN(C(=O)c3ccccc3C)CC2)n1,-12.5%,-2.5%
CSCC[C@H](CO)NC(=O)[C@H]1O[C@@H](n2cnc3c(N)ncnc32)[C@H](O)[C@@H]1O,-2.9%,7.7%
COCCn1c(=NC(=O)c2ccco2)sc2cc(C(=O)OC)ccc21,-2.5%,-8.1%

# Overlap with the part before: two compounds, followed by the next part.
SMILES,Vaccinia Venus,Vaccinia mCherry
CSCC[C@H](CO)NC(=O)[C@H]1O[C@@H](n2cnc3c(N)ncnc32)[C@H](O)[C@@H]1O,-2.9%,7.7%
COCCn1c(=NC(=O)c2ccco2)sc2cc(C(=O)OC)ccc21,-2.5%,-8.1%
CC1Cc2ccccc2N1C(=O)CSc1nncs1 (stereo not given),-4.5%,-17.6%
Cc1cc(C)c(NC(=O)CSc2nnnn2-c2cccnc2)c(C)c1,-4.4%,-18.8%
Cc1cccc2c(=O)cc(C(F)(F)F)[nH]c12,-9.8%,-15.8%
CC(=O)c1ccc(N2CCN(c3ccc4cc(S(=O)(=O)N5CCC(C)CC5)ccc4n3)CC2)cc1,?,?
O=C(Cn1c(=O)n(-c2ccccc2)c(=O)c2c3c(sc21)CCC3)c1ccc(Br)cc1,4.6%,?
O=[N+]([O-])c1ccc2oc(C3CCCCC3)nc2c1,-11.2%,-9.5%
COC(=O)c1ccc(Oc2nc3c(c(=O)n(C)c(=O)n3C)n2CCC(C)C)cc1,1.2%,nt
Cc1cccn2c(=O)c3cc(C(=O)NCC(C)C)sc3nc12,2.6%&-3.1%,-11.2%&1.1%
CN(Cc1ccc(Cl)s1)C(=O)CCl,-25.3%,-16.2%
O=C(C[C@@H]1C/C=C\CC[C@H](Cc2ccc(F)cc2)C(=O)OC[C@@H]2CCCN2C1=O)N[C@H](CO)Cc1ccccc1,?,-10.5%
COc1ccc(/C=N/n2c(C)nc3sc(C)c(C)c3c2=O)cc1OC,-7.9%,i
COc1ccc(NC(=O)CSCC(=O)Nc2ccccc2N2CCCC2)cc1,-7.2%,-11.4%
CN=C1SC(CC(=O)Nc2ccc(F)cc2F)C(=O)N1/N=C/c1ccc(OC(F)F)c(OC)c1 (stereo not given),-6.8%,i
CC(C)CNC(=O)C(=O)NN=C1CCCCCC1,1.6%,-14.1%
Cc1nn(C)c(=S)[nH]c1=S,-19.8%,i
CCO[C@H]1OC(C(=O)N2CCOCC2)=C[C@@H](c2ccc3c(c2)OCO3)[C@@H]1CCCO,-8.0%,-4.7%
COc1ccc(C2c3ccc(O)cc3Oc3ncn4nc(-c5cccnc5)nc4c32)cc1OC (stereo not given),?,?
CC1=CCC2C(=O)N(c3ccc(C)cc3)C(=O)C2C1 (stereo not given),-8.0%,i
N/C(=N\OC(=O)COc1ccc(Br)cc1)c1cccnc1,0.2%,-4.6%
CCOC(=O)C(=O)Nc1nnc(COc2ccccc2)s1,-4.7%,i
CC(NC(=O)c1cccs1)c1ccc(Br)cc1 (stereo not given),-12.1%,-28.9%
COc1cc(NC(=O)CN2CCN(Cc3ccc4c(c3)OCO4)CC2)cc(OC)c1,-7.4%,-23.1%
N/C(Cc1ccc([N+](=O)[O-])cc1)=N\OC(=O)c1ccccc1F,-10.7%,-17.8%
COc1ccc(CCNC(=O)c2ccc(Cl)cc2)cc1OC,-18.4%,i
Cc1ccc(CNC(=O)c2ccc(N3CCC4(CC3)CC(c3cccc(Br)c3)=NO4)c([N+](=O)[O-])c2)cc1,-9.4%,0.7%
O=S(=O)(c1c(Cl)cc(Br)cc1Cl)N1CCN(C(=S)NC2CC2)CC1,-12.7%,-9.0%
c1cc(-c2ccc(CN3CCOCC3)cc2)n2ccnc2c1,-3.2%,22.5%
Cc1c(C)n(C)c2ccc(C(=O)NCc3cccc(F)c3)cc12,1.0%,-6.7%
CCCCc1ccc(NC(=O)CSC2=C(C#N)C(c3ccco3)C3=C(CCCC3=O)N2)cc1 (stereo not given),-11.4%,-9.4%
C=C1C=C(C(F)F)n2ncc(C(=O)Nc3ccc(Br)cc3C(F)(F)F)c2N1,-11.9%,-13.6%
O=C1Nc2ccc(Br)cc2C1=C1CCCCC1,-9.3%,-5.5%
CCOc1ccc(C(=O)Nc2ccc3oc(-c4ccc(C)cc4C)nc3c2)cc1Br,-15.8%,i
COc1nc(N/N=C/c2ccc(-c3ccccc3[N+](=O)[O-])o2)nc(N2CCOCC2)n1,-6.5%,i
CC(C)(C)S(=O)N1Cc2cc(=O)n(Cc3ccccc3)cc2[C@H]1CCO (stereo not given in full),-1.3%,i
CCCOc1ccc(F)cc1-c1cc(C(=O)Nc2ccc(F)cc2)[nH]n1,?,?
CCc1nnc(NS(=O)(=O)c2ccc(NCc3cc(Cl)ccc3O)cc2)s1,5.7%,-5.3%
O=C(OCc1ccc([N+](=O)[O-])cc1)c1cc(=O)c2ccccc2o1,-11.2%,-8.5%
O=C(O)CC(NC(=O)C12CC3CC(CC(C3)C1)C2)c1ccc2c(c1)OCO2 (stereo not given),-6.8%,i
CCCCCCCn1c(C)nnc1-c1cnn(C)c1N,-15.4%,-19.3%
CCC1Nc2ncnc(N3CCN(c4ccccc4)CC3)c2N(Cc2ccccc2)C1=O (stereo not given),-27.8%&-1.4%,-19.0%
COc1ccc(NC(=O)CC2Nc3ccccc3NC2=O)cc1 (stereo not given),-4.0%,-4.2%
Cc1cc(-c2n[nH]c(=S)n2/N=C/c2cccc(O)c2)n[nH]1,-0.6%,-2.2%
CC(O)(c1cccc(F)c1)c1nc(-c2cnc3ccccc3c2)cs1 (stereo not given),-24.9%,i
COc1ccc(Br)cc1CNC(=O)C1CCN(C(=O)N(C)C)CC1,-13.8%,-14.5%
C=CCn1c(SCc2c(C(=O)OC)sc(N)c2C(=O)OC)nnc1-c1ccc(Br)cc1,-24.6%,nt
COc1cc2nc(NCC(C)c3ccccc3)n3nc(-c4ccccc4)nc3c2cc1OC (stereo not given),-10.0%,i
Cc1ccccc1NS(=O)(=O)c1ccc(S(=O)(=O)N2CCCC2)cc1,-7.6%,-1.1%
Cc1ccc(F)cc1C(=O)N1CCOCC1c1cc(C(=O)Nc2ccccc2)no1 (stereo not given),-1.9%,9.3%
Cc1ccc(CN2C(=O)C3(c4ccccc42)N(c2cccc(C(F)(F)F)c2)C(=O)CS3(=O)=O)cc1 (stereo not given),8.7%,17.2%
CC(=O)NS(=O)(=O)c1ccc(NC(=O)c2ccc(Br)o2)cc1,-2.7%,-14.0%
CCc1ccc(OCCCn2c(-c3ccc(Cl)cc3)nc3ccccc3c2=O)cc1,-4.8%,-1.3%
CCOC(=O)c1sc2cccc(F)c2c1S(=O)(=O)N1CCN(c2cccc(Cl)c2)CC1,-1.3%,-10.7%
O=c1oc2c(CN3CCN(CCO)CC3)c(O)ccc2cc1-c1ccccn1,-5.1%,-0.4%
Cc1ccc(C(=O)NCCN2CCOCC2)cc1,-6.8%,?
CN(C)/C=C/C(=O)c1ccc(Oc2ccccc2)cc1,-20.9%,-3.7%
Cc1cc(Cl)ccc1OCc1cc(=O)n2c3c(sc2n1)CCCC3,5.7%,-1.9%
COc1ccc(NC(=O)COC(=O)c2ccc([N+](=O)[O-])o2)cc1Cl,-7.6%,-6.4%
Cc1cccc(C)c1OCC(=O)N(Cc1ccc(Cl)cc1)C1CCS(=O)(=O)C1 (stereo not given),-2.2%[7.34 µM],-8.4%[7.34 µM]
COc1ccc(/C=N/NC(=O)c2ccc(=O)[nH]n2)cc1OC,12.8%,3.4%
CCN(C[C@H]1N[C@@](Cc2ccccc2)(C(=O)OC)[C@H]2C(=O)N(C)C(=O)[C@@H]12)C(=O)c1ccc(F)cc1,8.4%,-17.5%
# The results go on.
SMILES,Vaccinia Venus,Vaccinia mCherry
C/C(=C\C(=O)c1ccc(Cl)cc1)NCc1ccc2c(c1)OCO2,-14.0%,nt
COC(=O)c1ccccc1NC(=O)CSc1ncn[nH]1,6.4%,-3.2%
O=C(NCCCN1CCOCC1)C1Nc2ccc(OC(F)(F)F)cc2C2C=CCC12 (stereo not given),-10.9%,-14.8%
c1ccc(-c2nnc(SCC3CCCO3)nc2-c2ccccc2)cc1 (stereo not given),-14.8%,i
O=C(NCC1CC1)c1cc(-c2ccccc2)nn1CC1CC(c2cccnc2)=NO1 (stereo not given),-10.3%,-9.4%
COc1ccccc1NC(=O)CSCc1nc2ccccc2[nH]1,-14.5%,0.4%
COCCn1c(C)cc(C(=O)COC(=O)c2cc3c(s2)CCC3)c1C,-7.0%,-7.2%
CCc1cc(-c2nnn(CCC3COCCO3)c2CC)cc(CC)c1-c1cn(Cc2ccccc2)nn1 (stereo not given),-18.8%,?
CC1=Nc2ccccc2/C1=C/c1ccc(N(C)C)cc1,-13.3%,-23.4%
CCC(CC)CN1CCN=C1N(C)C,0.0%,-10.3%
O=C(CSc1ccc(Cl)cc1)NN=C1CCCCCC1,-7.5%,-8.7%
CC[C@@H](C)[C@H](NS(=O)(=O)c1ccc(C)cc1)C(=O)N1CCC(C(=O)NCC(=O)O)CC1,-2.2%,nt
CC(NCc1ccc(S(N)(=O)=O)cc1)C(=O)N1c2ccccc2CC1C (stereo not given),-8.7%,-10.6%
COc1ccc(Nc2nc(N3CCCC3)c3ccccc3n2)cc1,10µM*,8.91µM*
COc1cccc(NC(=O)C(=O)NCC(c2ccco2)N2CCc3ccccc3C2)c1 (stereo not given),-21.2%,-0.7%
CCc1ccc(Nc2nc3ccccc3nc2NS(=O)(=O)c2ccccc2)cc1,-3.7%,-13.5%
CCOc1ccc(CCNC(=O)c2ccc3c(Cl)c4c(nc3c2)CCCC4)cc1,-23.5%,-30.5%
COC(=O)Cc1ccc(NC(=S)N2CCN(C)CC2)cc1,0.4%,-1.2%
COCCCNC(=O)c1ccccc1NS(=O)(=O)c1ccc(C)cc1,-13.8%,nt
CN(c1ccc(C(=O)COC(=O)C2CC2)cc1)S(C)(=O)=O,-15.8%,-3.8%
COc1ccc(CCN2C(=O)CN(C3CCCCCC3)C(=O)C2c2ccc(OC(C)C)c(OC)c2)cc1OC (stereo not given),-8.2%,-7.8%
CCCC(=O)N1CCN(c2nc3ccc(F)cc3s2)CC1,-22.4%,-19.4%
CCSc1cc(C)nc2ncnn12,0.0%,-11.3%
CNC(=S)N/N=C(\C)c1ccc(C(C)(C)C)cc1,-15.5%,i
Cc1ccc2oc(=O)c(-c3nc(-c4cccs4)no3)cc2c1,-9.5%,-18.0%
Cc1ccc(C(=O)Nc2cccc(-c3ccc(N4CCOCC4)nn3)c2)cc1[N+](=O)[O-],-10.6%,i
O=C(CN(CC1CCCO1)C(=O)CCC(=O)Nc1nccs1)NCc1ccccc1 (stereo not given),2.3%,i
CCOc1ccc(NC(=O)[C@@H]2CCC(=O)N2C2OC(=O)c3ccccc32)cc1 (stereo not given in full),-7.7%,-4.6%

# Random draw from the library. About 0.82% of those tested had a hit in this group.
